High-throughput results (PubChem BioAssay)
CBX7 inh – CBX7 inhibition, primary AlphaScreen | normalised signal (fraction of DMSO) (no concentration beside the values) | 1.1% of 66,000 active | O95931 | AlphaScreen His6-CBX7 / biotin-H3K27me3 peptide binding; hits give low values; in the data active = normalised signal below about 0.5;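 note: 100 nL library stock added to about 20 µL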
Target sequence (O95931 whole entry, looked up): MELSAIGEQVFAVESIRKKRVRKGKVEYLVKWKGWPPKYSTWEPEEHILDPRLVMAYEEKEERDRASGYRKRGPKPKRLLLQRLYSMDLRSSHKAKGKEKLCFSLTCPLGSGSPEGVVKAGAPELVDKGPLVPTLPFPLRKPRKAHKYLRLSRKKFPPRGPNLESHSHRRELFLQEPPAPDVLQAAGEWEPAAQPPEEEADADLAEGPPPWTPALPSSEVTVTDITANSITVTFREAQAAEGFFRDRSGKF
CBX7 inh z-score – recorded beside CBX7 inh, whose call it bears; z-score; measured here: z-score of CBX7 signal; some inactives read as strong as hits; reference of the scale not given here;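 same signal on another scale; lower means less binding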
* marks the source's active call; other numbers are inactive results; & = joins results of further samples. These rows are one share of the data (hit frequency here may not be typical).

Sequence of screens – CBX7 inh | CBX7 inh z-score
> CCn1c(C(=O)N2CCC(C(=O)NC(C)CCc3ccccc3)CC2)cc2sccc21 (centres undefined)
  0.82 | -0.78
> CCOC(=O)C1CCN(C(C(=O)Nc2ccc(C(C)C)cc2)c2ccccc2)CC1 (centres undefined)
  0.93 | -1.7
> Cc1ccc(NC(=O)c2sc3ncn(CC(=O)N4CCCC4)c(=O)c3c2C)c(Br)c1
  1.3 | 2.6
> COc1ccc(Nc2cc(C(=O)NC3CCCCCC3)c3ccccc3n2)c(OC)c1
  0.86 | -2.1
> CCOc1cc2c(cc1OCC)C(c1cc(C)ccc1C)NCC2 (centres undefined)
  1 | 0.83
> Cc1ccccc1-c1nc(CN2CCCC(C(=O)NC3CCCCC3)C2)c(C)o1 (centres undefined)
  1 | 0.51
> Cc1ccc(N(CC(=O)Nc2cccc(Cl)c2)S(=O)(=O)c2c(C)nn(C)c2C)cc1
  1 | 0.27
> Cc1ccc(-c2nc3ccccc3s2)cc1NC(=O)c1ccccc1C
  1 | 0.86
> CCOC(=O)c1ccc2nc(NC(=O)c3c(Cl)cnn3C)sc2c1
  0.85 | -2.7
> O=C(c1cccs1)N1CCNc2ccccc2C1
  0.85 | -1.8
> Cc1sc2ncn(CC(=O)NCC(=O)Nc3ccc(F)cc3Cl)c(=O)c2c1C
  1 | 0.53
> COc1ccc(C(=O)Nc2ccc3oc(Cc4ccc(Cl)cc4)nc3c2)cc1OC
  0.86 | -0.94
> CC1CCN(C(=O)c2cnn(-c3ccccc3)c2NC(=O)c2cccc(F)c2)CC1
  0.81 | -2
> CCOC(=O)c1c(C)n(C)c2ccc(OCC(O)Cn3c(Cc4ccccc4)nc4ccccc43)cc12 (centres undefined)
  0.84 | -7
> CCOC(=O)c1cnc2cc(Cl)c(OC)cc2c1Nc1ccccc1F
  0.92 | -0.087
> O=C(CCn1nc(-c2ccccc2)ccc1=O)N1CCCC1
  1.2 | 0.45
> COCCn1c(SCC(=O)Nc2ccc(Br)cc2)nnc1-c1c[nH]c2ccccc12
  1 | -0.0032
> Cc1ccc(NC(=O)C2CCN(S(=O)(=O)c3cccs3)CC2)cc1
  0.9 | -0.1
> CC(C)Sc1oc(-c2ccc(F)cc2)nc1S(=O)(=O)c1ccccc1
  1.1 | 2.7
> COc1ccc(-c2cn(-c3ccc(F)cc3)c(SCC(=O)Nc3cccc(Cl)c3)n2)cc1OC
  0.6 | -3.1

(further entries)
Sequence of screens – CBX7 inh | CBX7 inh z-score
> CCCc1ncc(C(O)c2ccc(N(C)C)cc2)n1C (centres undefined)
  0.78 | -2.4
> Cc1cccc(OCCn2c(CO)nc3ccccc32)c1
  0.98 | -0.61
> O=C(c1cccc(F)c1)N1CCN(c2ccc3nnc(-c4ccc(F)cc4)n3n2)CC1
  0.87 | -1.9
> CN(CC(=O)O)S(=O)(=O)c1ccc2c(c1)n(C)c(=O)c(=O)n2C
  0.98 | -0.48
> COc1ccc(OC)c(CCNC(=O)C2CCCN(c3nc4ccccc4[nH]3)C2)c1 (centres undefined)
  0.8 | -2.3
> CCN(Cc1ccccc1)C(=O)c1oc2ccc(S(=O)(=O)N3CC(C)CC(C)C3)cc2c1C (centres undefined)
  0.88 | -1.6
> COc1ccccc1NC(=O)c1c(NCc2ccccn2)sc2c1CCCC2
  0.64 | -5
> CCOC(=O)CSCc1nc(-c2ccc(C)cc2)oc1C
  1.1 | 0.85
> CCCNC(=O)CS(=O)(=O)Cc1nc(-c2ccccc2Cl)oc1C
  1 | 0.55
> COc1ccc(C(=O)Nc2ccc3oc(-c4ccncc4)nc3c2)cc1Br
  0.98 | -0.26
> O=C(COc1cccc(Cl)c1)Nc1ncc(Cc2ccccc2)s1
  1.2 | 1.4
> COc1ccc(NC(=O)CCc2c(C)nc3cc(-c4ccc(Cl)cc4)nn3c2C)c(OC)c1
  1.1 | 2.8
> Cc1cc(NC(=O)C2CCCN2S(=O)(=O)c2ccc3c(c2)CCC(=O)N3)ccc1Br (centres undefined)
  0.9 | -1.3
> Cc1nc(Nc2cc(F)ccc2C)c2c3c(sc2n1)CCCC3
  1.1 | 0.078
> CC(C)CCNS(=O)(=O)c1ccc2c(c1)CCN2C(=O)C1CC1
  1.1 | 2
> NS(=O)(=O)c1ccc(CCNC(=O)c2cc(-c3ccccc3)nc3ccccc23)cc1
  0.96 | -0.59
> CC1CCCCN1c1nnc(NC(=O)Nc2ccc(Cl)cc2)s1 (centres undefined)
  0.81 | -0.76
> CCCCCNc1nc(CCCC)c2c(c1C#N)CC(C)(C)OC2
  1.1 | 3
> CCOC(=O)c1cc(-c2ccccc2)n(CCC(=O)Nc2cccnc2)c1C
  0.94 | -1.6
> Cc1ccc(NC(=O)CSc2nnc(Cc3cc(=O)[nH]c(=O)[nH]3)n2-c2cccc(C)c2)cc1
  1 | 0.85

Continuation:
Sequence of screens – CBX7 inh | CBX7 inh z-score
> Nc1ccc(C(=O)NCCCc2nc3ccccc3[nH]2)cc1
  0.96 | -1.3
> CCCC1=Nc2cc(C(=O)NCCOC)ccc2Sc2ccccc21
  0.88 | -1.7
> O=C(Nc1ccccc1C(F)(F)F)C(Cc1ccccc1)N1C(=O)c2ccccc2C1=O (centres undefined)
  1.1 | 0.28
> COc1ccc(CCNC2CC(=O)N(c3ccccc3)C2=O)cc1 (centres undefined)
  0.96 | -1.6
> CC1CCN(c2c(NCc3ccc(C(=O)NCC4COc5ccccc5O4)cc3)c(=O)c2=O)CC1 (centres undefined)
  0.94 | -0.82
> COc1ccccc1CNC(=O)c1oc2ccc(S(=O)(=O)N3CCOCC3)cc2c1C
  1 | 0.69
> Cc1ccc2nc(C)cc(Nc3ccc(C)c(C)c3)c2c1
  1 | 0.26
> O=C(NCc1ccccn1)c1ccc2c(c1)N(Cc1ccccc1)C(=O)c1ccccc1S2=O (centres undefined)
  1 | 0.025
> COc1ccc(CNC(=O)CCc2nc(-c3ccc(OC)cc3)no2)cc1
  0.94 | -0.85
> COc1cccc(CNC(=O)C2CCCN(S(=O)(=O)c3c(C)noc3C)C2)c1 (centres undefined)
  1.1 | 2.2
> Fc1ccc(-c2[nH]c(-c3c[nH]c4ccc(Br)cc34)nc2-c2ccccc2)cc1
  0.46* | -0.54*
> O=C(NCCN1CCOCC1)c1cc2nc(-c3cccs3)cc(C(F)(F)F)n2n1
  1.5 | 4.4
> O=C(CC(C(=O)N1CCc2ccccc21)n1ccnc1)N1CCCCC1 (centres undefined)
  1.1 | 2.2
> Cc1ccc(C(=O)c2oc3ccccc3c2NC(=O)c2ccc(Br)cc2)cc1
  1.2 | 0.82
> O=C1CC(NCCc2ccccc2F)C(=O)N1c1ccc(Cl)cc1 (centres undefined)
  1 | 1.3
> CCc1nnc(NS(=O)(=O)c2ccc(NC(=O)c3ccccc3)cc2)s1
  1 | 0.66
> Cc1ccc(-c2noc(CCC(=O)N3CCN(C)CC3)n2)cc1
  1.1 | 0.14
> CCOc1ccc(C(O)Cc2nc3ccccc3n2C)cc1 (centres undefined)
  1 | 0.41
> CCOC(=O)c1cccc(NC(=O)Cc2c(C(=O)O)[nH]c3ccccc23)c1
  1 | 0.68
> CCOc1ccc(-n2c(C)nc3cc(C(=O)NCCOC)ccc32)cc1
  1.1 | 1.6

Carrying on.
Sequence of screens – CBX7 inh | CBX7 inh z-score
> CCSc1nnc(NC(=O)CSc2nccn2-c2cccc(OC)c2)s1
  1.3 | 4.1
> CCCOc1ccc(C(=O)Nc2ccc3nn(-c4ccc(Cl)cc4)nc3c2)cc1
  1 | 0.42
> COc1ccc2cc(CCNC(=O)c3ccc(F)c(F)c3)c(=O)[nH]c2c1
  1.1 | 2
> Cc1cccc(CN2CCN(CC(=O)NCCC(C)C)C2=O)c1
  1 | 0.42
> O=C(Nc1nc(-c2ccc(F)c(F)c2)cs1)c1cc(F)c(F)cc1Cl
  0.99&1.1 | -0.21&0.083
> O=S(=O)(c1cnc[nH]1)N1CCN(c2ccc(F)cc2)CC1
  0.88 | -1.5
> COc1ccc(-c2cc(C(=O)Nc3ccc(C)c(C)c3)no2)cc1OC
  1.3 | 2
> COc1cccc(-c2cc(C(F)(F)F)nc(N3CCN(c4ccccc4)CC3)n2)c1
  1.3 | 2.6
> Cc1ccc(C)c(N2CCN(CCCNC(=O)Nc3ccccc3C(F)(F)F)CC2)c1
  1.1 | 0.12
> COc1ccc(NC(=O)c2cc3c(n(-c4ccccc4)c2=O)CCCC3=O)c(OC)c1
  0.99 | -0.29
> CCOC(=O)Cc1c(C)nc2c(-c3ccc(Cl)cc3)c(C)[nH]n2c1=O
  0.97 | -0.96
> O=C(NCc1ccccc1)C1CC(c2ccc(F)cc2)=NO1 (centres undefined)
  1.1 | 3
> CC(C)(C)c1ccc2c(c1)N(CC(=O)NC1CCCCCCC1)C(=O)CO2
  0.73 | -5.4
> CC(CNC(=O)C1CCCN(C(=O)c2cc3sccc3n2C)C1)c1ccccc1 (centres undefined)
  0.86 | -4.1
> Clc1ccc(Oc2nc(-c3ccccc3)c3cc(Br)ccc3n2)cc1
  1 | 0.76
> Cc1cc(C)cc(C(=O)Nc2nnc(-c3ccccc3C)s2)c1
  0.94 | -0.96
> CCOc1ccc(CNC(=O)Nc2cccs2)cc1
  0.96 | -1.6
> CCCCCOc1ccc(C(O)(CCC)CCN2CCOCC2)cc1 (centres undefined)
  1.1 | 0.54
> COc1ccc(-n2c(CCC(=O)O)ccc2-c2cccs2)c(OC)c1
  0.97 | -0.87
> Fc1cccc(F)c1Nc1ncnc2ccccc12
  1.1 | 2.2

(continued)
Sequence of screens – CBX7 inh | CBX7 inh z-score
> Cc1ccc(NC(=O)c2csc3c2CCCCC3)cc1C
  1.1 | 4.7
> COc1ccccc1CNC(=O)Cn1nc(Cc2ccncc2)c2ccccc2c1=O
  1 | 0.54
> Cc1ccc(C(=O)Nc2sc3c(c2C(=O)N2CCCC2)CCCCC3)cc1
  0.99 | -0.38
> O=C(c1ncc[nH]1)c1ccccc1C(=O)N1CCOCC1
  1&0.95 | -0.086&-1.3
> O=C(NCCc1nc(-c2ccccc2)cs1)NC1(c2ccccc2)CC1
  0.79 | -5.6
> COc1ccc(C(=O)Nc2c3c(nn2-c2ccc(F)cc2)CSC3)cc1OC
  0.95 | -0.93
> COc1ccc(C(O)c2nc3ccccc3s2)cc1 (centres undefined)
  0.98 | -0.76
> CC1(C)CC(=O)c2cc(C(=O)Nc3cccc(F)c3)c(=O)n(-c3ccccc3)c2C1
  1 | 1.6
> O=C1C2C(C(=O)N1c1cc(Cl)ccc1Cl)C1C=CC2C12CC2 (centres undefined)
  1 | 0.24
> Cn1cnnc1-c1cccc(NC(=O)C2(c3ccccc3)CCCC2)c1
  1 | 1.1
> CCc1ccccc1NC(=O)c1cc(-c2cccc(Cl)c2)on1
  1.2 | 2.9
> O=C(NCCCN1CCCCCC1)C1CC(=O)N(CCc2ccccc2)C1 (centres undefined)
  1.2 | 3.3
> O=C(NC1CCCCCC1)C1c2ccccc2C(=O)N1Cc1ccccc1 (centres undefined)
  1.2 | 2
> CCOc1ccc(-n2nc(C(=O)Nc3ccccc3F)c3ccccc3c2=O)cc1
  1.1 | 1
> Cc1ccc(Nc2nnc(-c3ccc(C)c(S(=O)(=O)N4CCCCC4)c3)c3ccccc23)c(C)c1
  0.95 | -0.11
> CCOC(=O)c1cnc2ccc(OC)cc2c1NCc1ccccc1
  1.2 | 2.9
> Cc1ccc(-n2c3c(cc(C(=O)NCCc4ccccc4)c2=O)C(=O)CC(C)(C)C3)cc1
  0.97 | -0.38
> Cc1ccc2nc(SCc3nc4ccccc4n3C)[nH]c2c1
  1.4 | 1.5
> COc1cc(OC)cc(-c2cc3nc(C)c(CCC(=O)Nc4ccc(OC)c(Cl)c4)c(C)n3n2)c1
  1.1 | 2.4
> COc1ccc(/C=C\c2onc(C)c2S(=O)(=O)N2CCC(C(=O)Nc3cccc(F)c3)CC2)cc1
  0.99 | -0.082

6 compounds picked at random from the list so far, as already listed:
Sequence of screens – CBX7 inh | CBX7 inh z-score
> CC1CCN(C(=O)c2cnn(-c3ccccc3)c2NC(=O)c2cccc(F)c2)CC1
  0.81 | -2
> COc1ccc(NC(=O)c2cc3c(n(-c4ccccc4)c2=O)CCCC3=O)c(OC)c1
  0.99 | -0.29
> Cc1ccc(C)c(N2CCN(CCCNC(=O)Nc3ccccc3C(F)(F)F)CC2)c1
  1.1 | 0.12
> Cc1ccc2nc(SCc3nc4ccccc4n3C)[nH]c2c1
  1.4 | 1.5
> CC(CNC(=O)C1CCCN(C(=O)c2cc3sccc3n2C)C1)c1ccccc1 (centres undefined)
  0.86 | -4.1
> CCCCCOc1ccc(C(O)(CCC)CCN2CCOCC2)cc1 (centres undefined)
  1.1 | 0.54

More compounds follow.
Sequence of screens – CBX7 inh | CBX7 inh z-score
> COc1ccc(Cn2c(=O)c3cccnc3n(Cc3ccc(Cl)cc3)c2=O)cc1
  1 | 0.6
> CC(C)CCNC(=O)c1c[nH]c2ccc(S(=O)(=O)Nc3ccccc3F)cc2c1=O
  0.78 | -4.2
> COc1cccc(C2Nc3cc(C)c(C)cc3NC3=C2C(=O)CC(C)(C)C3)c1OC (centres undefined)
  1.1 | 0.38
> Nc1nonc1C(=O)NCc1cccnc1
  1 | 0.44
> COc1ccccc1NC(=O)Cn1cnc2sc(C(=O)Nc3cc(C)ccc3OC)c(C)c2c1=O
  1.3 | 2.9
> CC(C)c1nc2ccccc2n1C(=O)c1ccccc1C(=O)O
  1 | 0.43
> O=c1c2nnn(Cc3ccccc3)c2ncn1Cc1ccccc1
  1 | 0.85
> COCCCNC(=O)CSCc1nc(-c2ccc(OC)c(OC)c2)oc1C
  1.2 | 2.6
> COc1ccccc1Nc1cc(C)nc2ccccc12
  1 | 1.5
> COc1cc(OC)cc(C(=O)Nc2c(C(=O)Nc3cccc(F)c3)oc3ccccc23)c1
  0.94 | -0.74
> CCOc1ccccc1-c1cc(C(=O)O)c2cc(Br)ccc2n1
  0.88 | -0.17
> CN1CCc2c(n(CC(O)Cn3cnc(-c4ccccc4)c3-c3ccccc3)c3ccccc23)C1=O (centres undefined)
  0.81 | -9.7
